AID504770 = growth inhibitors of E. coli YBA685 in a screen for V. cholerae RctB (chromosome II replication) inhibitors; E. coli YBA685 rctB-dependent plasmid, OD600 growth, 3 h; stronger effect = lower value; z-score (no concentration beside the values); actives 0.27% (n = 130,000);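 active means z-score under -2 on both plates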;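 further: wells of about 30 µL received 100 nL stock; score is relative to mean and SD of the test wells; the first replicate is given; strong numbers were not always called active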
CapD inh = CapD enzyme inhibition; actives 0.23% (n = 140,000); z-score (test concentration not listed); purified CapD enzyme, fluorescence intensity read-out; stronger effect = lower value; some hits fall short of the stated cut;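 active means z-score under -4 in either of two replicates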;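 further: stock transfer was 100 nL into about 40 µL; score is relative to mean and spread of the plate; one replicate is shown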
* = called active by the depositor; . = no result given. Not all compounds are listed; count on the stated rates, not on these rows.

SMILES	AID504770	CapD inh
CCCCc1oc2ccccc2c1C(=O)c1ccc(O)cc1	-0.2	15
CCOc1ccc(-n2c(CSc3nc4ccccc4o3)nc3ccccc3c2=O)cc1	0.15	.
O=C(Nc1ccc(Cl)cc1Cl)c1cc(S(=O)(=O)N2CCN(Cc3ccc4c(c3)OCO4)CC2)ccc1F	.	0.97
CCOC(=O)C1(C)C=C(Nc2cccc([N+](=O)[O-])c2)C(=O)N1c1cccc([N+](=O)[O-])c1 (centres undefined)	.	6.2
O=C(C1CCN(S(=O)(=O)c2ccccc2)CC1)N1CCCC1	0.4	0.3
O=C(c1cc2ccccc2oc1=O)N(c1ccccn1)C1CCCCC1	1.4	-0.09
Cc1cccc(C(=O)N2c3ccccc3N3C(c4c(C)c(C)c(Cl)c(C)c4C)=NON23)c1	.	-0.35
CC(C(=O)NC1CCCCCC1)n1c2ccccc2c2cnn(C)c(=O)c21 (centres undefined)	1.1	0.38
NC1CN2CCC1CC2 (centres undefined)	0.15	.
CC(=O)O/N=C1\Sc2ccccc2C1=O	-0.75	-2.5
O=C1N/C(=N\c2ccccn2)SC1Cc1cccc(C(F)(F)F)c1 (centres undefined)	.	-0.06
N#Cc1ccsc1NC(=O)COC(=O)c1cc(-c2ccccc2)nn1-c1ccccc1	-0.25	.
C/C(CC1(O)/C(=N/O)CCc2nonc21)=N\O (centres undefined)	-0.75	-0.17
CC1CCCCC1NC(=O)CCn1nc(-c2ccccc2)ccc1=O (centres undefined)	-1.9	-1.7
CC(=O)Nc1cccc2ncccc12	1.1	0.57
O=C(c1c[nH]c(C(=O)C(Cl)(Cl)Cl)c1)c1c(F)cccc1F	.	-0.7
Clc1cccc(Cl)c1Cn1nnc(N2CCCC2)n1	-0.3	0.3
CCC(Sc1nc2cc(OC)c(OC)cc2c(=O)n1Cc1ccco1)C(=O)Nc1ccccc1OC (centres undefined)	-0.15	-0.28
O=C(O)CCCNc1ncnc2ccccc12	0.05	.
O=S1(=O)CCC(N=Cc2ccc(-c3cccc(C(F)(F)F)c3)o2)C1 (centres undefined)	-0.1	22
N#CCS(=O)(=O)Cc1c(F)cccc1Cl	-0.95	-0.33
Oc1ccccc1CNc1ccc(F)c(Cl)c1	-0.25	.
Cc1nn(-c2ccccc2)c(Cl)c1C1C(C#N)=C(N)OC2=C1C(=O)CCC2 (centres undefined)	-1.3	0.23
COC(=O)Cn1cnc2c1c(=O)n(C)c(=O)n2C	2	.
O=C(CSc1ncnc2[nH]ncc12)c1ccccc1	-0.5	.
NC(=O)CCC1COc2ccccc2O1 (centres undefined)	-0.55	-0.27
COC(=O)C1=C(C(=O)c2ccccc2)C(c2ccc(OC)c(OC)c2)Nc2nnnn21 (centres undefined)	0.55	-0.34
CC1(C)CC(=O)C2=C(C1)c1c(ccc3ccccc13)NC2c1cc(Cl)cc(Cl)c1OCc1ccccc1 (centres undefined)	.	36
O=C(Oc1cccc2cccnc12)c1cccc(F)c1	-1.4	.
CCc1nnc(NC2=NS(=O)(=O)C(c3cccc(Br)c3)=C2C)s1	-0.55	-1.8
O=S(CCCCS(=O)c1ccc(Cl)cc1)c1ccc(Cl)cc1 (centres undefined)	.	-0.69
Cc1c(/C=N/NC(=O)c2cc(Br)ccc2O)c(=O)n(C)c(=O)n1C	0.55	.
COC(=O)C1(CCSC)NC(c2ccc(N(C)C)cc2)C2C(=O)N(C)C(=O)C21 (centres undefined)	-0.4	.
O=c1c2cc(N3CCOCC3)ccc2[nH]c(=S)n1CCc1ccccc1	1.7	0.37
CCc1c(O)nc(SC(C)C(=O)Nc2ccc(S(N)(=O)=O)cc2)n(-c2ccccc2)c1=O (centres undefined)	-1.1	-0.51
O=C(CC(Sc1ccc(C(F)(F)F)cn1)C(=O)O)c1ccc(Br)cc1 (centres undefined)	-1.1	-0.46
CCOC(=O)c1c(C)oc2c1c(CN1CCN(c3ccccc3)CC1)c(O)c1ccccc12	-0.15	.
NC(=O)C1CCN(C(=O)NCc2ccccc2C(F)(F)F)CC1	.	-0.76
Cc1ccc(C23CC4CC(CC(C(=O)Nc5ccc(Br)cc5)(C4)C2)C3)cc1	.	-0.44
COCCOC(=O)c1c(C)oc2ccc(NS(=O)(=O)c3ccc(Cl)c([N+](=O)[O-])c3)cc12	.	-0.41
O=C(CSCc1ccccc1Cl)NC1CC1	-0.2	0.42
CCN(CC)c1ccc(NC(=O)Nc2ccc(Cl)cc2)cc1	2.8	-0.055
O=C1CCOc2c(F)cc(F)cc21	.	22
CCOC(=O)N1CCN(CC(O)COCc2ccccc2)CC1 (centres undefined)	-0.2	0.14
Cc1noc(C)c1C(=O)N(C)C1CCCc2ccccc21 (centres undefined)	0	.
Cn1nc(-c2ccccc2)c(CN2CCN(c3ccccc3)CC2)c1Cl	.	-0.7
Cc1cnc(C(=O)Nc2ccccc2F)cn1	-0.45	-0.27
COC(=O)c1ccc(-n2c(/C=C/c3cccc(OC)c3OC)nc3ccccc3c2=O)cc1	.	-0.39
COc1cc(/C=C2/N=C(c3ccc([N+](=O)[O-])cc3)OC2=O)cc(Br)c1OC(C)=O	.	-1.2
Cc1noc2ncn(CC(=O)NC(C)C)c(=O)c12	-0.85	-2.6
CC(C)(C)c1cc(C(=O)NCCCn2ccnc2)cc(C(C)(C)C)c1	-1.1	0.22
Cc1ccc(S(=O)(=O)Nc2ccc3c(c2)c2c(n3S(=O)(=O)c3ccc(C)cc3)CC(C)(C)CC2=O)cc1	.	-0.56
O=S1(=O)CCC2CC=CCC21 (centres undefined)	0.8	0.26
CC(C)(C)NC(=O)/C=C/c1ccc(Cl)cc1	0.2	0.21
COc1cc(C2Nc3ccccc3NC3=C2C(=O)CC(c2ccccc2Cl)C3)cc(OC)c1OC (centres undefined)	.	-1.4
Cc1ccc(S(=O)(=O)N2c3ccccc3OC2c2ccc(Cl)c(Cl)c2)cc1 (centres undefined)	-0.25	-0.81
COc1cc(C2C(C#N)=C(N)N(c3ccc(Cl)cc3)C3=C2C(=O)CCC3)cc(OC)c1OC (centres undefined)	.	-0.33
COc1ccc(CCNc2nnc(-c3ccccc3)c(=O)[nH]2)cc1OC	-0.45	-1.5
Cc1onc(-c2ccccc2Cl)c1C(=O)Nc1c2c(nn1-c1ccc(F)cc1)CS(=O)(=O)C2	.	-0.78
CCC(C)NC(=O)c1nc2c(nnn2Cc2ccccc2Cl)c(=O)[nH]1 (centres undefined)	-0.2	.

Following part
SMILES	AID504770	CapD inh
Cc1c(C(=O)NCCCN2CCOCC2)sc2ncnc(N3CCc4ccccc4C3)c12	.	2.5
CN(C)/N=C/c1ccc(/C=N/N(C)C)o1	0.05	.
O=C(NC(=O)c1ccccc1N1CCCCC1)Nc1ccc(Cl)c(Cl)c1	.	0.65
N/C(COc1ccc(Cl)cc1)=N/OC(=O)c1ccsc1	.	-0.53
COc1ccc(-c2nc(SCC(=O)NCc3ccccc3)c3c(=O)n(C)c(=O)n(C)c3n2)cc1	1.4	-0.13
CN1CCN(c2nc(-c3ccccc3)ncc2S(=O)(=O)c2ccccc2)CC1	.	-0.26
Cc1ccc(CSCC(=O)N2CCN(Cc3ccc4c(c3)OCO4)CC2)cc1	-0.6	.
CC(=O)Nc1ccc(S(=O)(=O)N2CCCOC2)cc1	-0.1	0.13
COc1cc2c(cc1OC)[C@@H](Cc1ccc(O)cc1)N(C)CC2	-0.25	0.61
Cc1ccc(C(=O)Nc2nc(=O)n(C(=O)c3ccccc3Cl)s2)cc1	.	-0.36
Cc1ccc(Cl)cc1NC(=O)c1ccc(Br)o1	0.05	0.075
CCc1cccc2c(C#N)cn(CC(=O)NCCOC)c12	-0.25	.

An excerpt from above in order of number of heavy atoms, rising.
SMILES	AID504770	CapD inh
O=C1CCOc2c(F)cc(F)cc21	.	22
CC(=O)Nc1cccc2ncccc12	1.1	0.57
NC(=O)CCC1COc2ccccc2O1 (centres undefined)	-0.55	-0.27
O=C(O)CCCNc1ncnc2ccccc12	0.05	.
Cc1noc2ncn(CC(=O)NC(C)C)c(=O)c12	-0.85	-2.6
N/C(COc1ccc(Cl)cc1)=N/OC(=O)c1ccsc1	.	-0.53
Cc1noc(C)c1C(=O)N(C)C1CCCc2ccccc21 (centres undefined)	0	.
COc1cc2c(cc1OC)[C@@H](Cc1ccc(O)cc1)N(C)CC2	-0.25	0.61
O=S1(=O)CCC(N=Cc2ccc(-c3cccc(C(F)(F)F)c3)o2)C1 (centres undefined)	-0.1	22
Cc1ccc(C(=O)Nc2nc(=O)n(C(=O)c3ccccc3Cl)s2)cc1	.	-0.36
O=c1c2cc(N3CCOCC3)ccc2[nH]c(=S)n1CCc1ccccc1	1.7	0.37
Cc1nn(-c2ccccc2)c(Cl)c1C1C(C#N)=C(N)OC2=C1C(=O)CCC2 (centres undefined)	-1.3	0.23
CN1CCN(c2nc(-c3ccccc3)ncc2S(=O)(=O)c2ccccc2)CC1	.	-0.26
COC(=O)C1=C(C(=O)c2ccccc2)C(c2ccc(OC)c(OC)c2)Nc2nnnn21 (centres undefined)	0.55	-0.34
CC1(C)CC(=O)C2=C(C1)c1c(ccc3ccccc13)NC2c1cc(Cl)cc(Cl)c1OCc1ccccc1 (centres undefined)	.	36

New compounds follow:
SMILES	AID504770	CapD inh
O=C(Cc1ccccc1)NC1CCN(C(=O)C2CCCCC2)CC1	-0.7	0.73
O=C(c1ccccc1Cl)N1c2ccccc2Sc2ccccc21	.	-0.43
Cc1cccc2c(=O)cc(C)n(CC(=O)N3CCCCC3)c12	1.2	.
Cc1ccc(Cn2ccc(=O)c(OCc3c(F)cccc3Cl)c2C)cc1	.	-0.17
Cc1sc2c(c1C)c(=O)nc1n2C(CSc2nc3sc4c(c3c(=O)[nH]2)CCCC4)CS1 (centres undefined)	-0.55	.
Cc1ccc(C(C)(C)CCN2CCCN(C)CC2)o1	-1.1	0.52
COc1cc(/C=N/NC(=O)c2cc(C3CC3)[nH]n2)ccc1O	-0.7	0.76
CCCc1nnc(CSc2nc3ccccc3o2)o1	0.45	.
C=CCNc1nc(C(=O)OCC(=O)c2ccc[nH]2)cs1	-0.05	.
O=C(/C=C/c1nnc2c3ccccc3cnn12)OCc1nnc(-c2cc3c(s2)CCCC3)o1	-0.2	.
O=C1CC(c2ccc(S(=O)(=O)NCc3ccncc3)cc2)CN1 (centres undefined)	-0.85	0.17
CCC(C)NC(N)=O (centres undefined)	1.1	.
O=C(C1CCCN(S(=O)(=O)N2CCCCCC2)C1)N1CCN(c2cccc(C(F)(F)F)c2)CC1 (centres undefined)	0.5	0.54
CC(C)(C)C(=O)CS(=O)(=O)c1ccc(Cl)cc1	-0.85	0.29
Cc1cc(Sc2ccc(C(F)(F)F)cc2[N+](=O)[O-])c(Cl)cc1Cl	.	0.12
c1ccc(-c2nnsc2-c2nc3ccccc3[nH]2)cc1	-0.2	1.6
CCN(CC)CC(O)Cn1c2c(c3cc(C)ccc31)CCCC2=O (centres undefined)	-0.4	7
CCn1c2ccccc2c2cc(CN3CCN(C(=O)CCOC)CC3)ccc21	.	19
COC(=O)C1CN(Cc2csc(NC(C)=O)n2)c2ccccc2O1 (centres undefined)	-0.3	.
c1ccc(C(Nc2nccs2)c2ccccc2)cc1	0.7	-0.59
Cc1ccc(N=Cc2cc(Cl)cc(Cl)c2O)cc1NS(C)(=O)=O	.	-1.1
O=C(CSc1nnnn1C1CCCC1)NCc1cccs1	-0.7	.
CCc1ccc(/C=C2\Cc3ccccc3C2=O)cc1	-0.75	-0.22
Cc1ccc(S(=O)(=O)Nc2cccc(C(=O)N3CCOCC3)c2)cc1	-0.2	-0.56
CCN(CC)c1ccc(C2C(C(=O)Nc3ccc(Br)cn3)=C(C)NC3=C2C(=O)CC(C)(C)C3)cc1 (centres undefined)	.	0.57
Cc1ccccc1Cn1cc(S(=O)(=O)CC(=O)N2CCCCCC2)c2ccccc21	0	-0.72
c1ccc(Nc2csc(N=C3CCCCC3)n2)cc1	0.2	1.2
O=C(NCc1ccccn1)c1cc2c(Cl)ccc3c2n1CCO3	0.35	22
Cc1ccc(-n2nc(C)c3c(C)cc(=O)n(CC(=O)NCc4ccco4)c32)cc1	0.4	0.4
COc1cccc2cc(C(=O)NC(C)=O)c(=Nc3ccc(C(F)(F)F)cc3)oc12	.	-0.65
O=C1c2ccccc2-c2c(-c3ccccc3)nc3ccccc3c21	0	-0.24
COc1cc(OC)cc(C(=O)Nn2cc(C(=O)N3CCN(C)CC3)c3ccccc3c2=O)c1	.	0.045
CC1CCC2C(=O)N(CNc3ccc(Br)cc3)C(=O)C2C1 (centres undefined)	.	-0.17
Cc1noc(C)c1C(=O)Nc1ccc2c(c1)OCCO2	0.85	1
COc1ccc(-c2csc(C3=C(O)CN(CCCN4CCOCC4)C3=N)n2)cc1OC	0.15	.
Cc1nn(-c2ccccn2)c2c1C1C(C2)C1(C)C (centres undefined)	1.3	0.52
CSC1=NNC(c2nn(C)cc2Cl)S1 (centres undefined)	0.8	-0.94
CCc1cc(C(=O)COc2ccc3ccccc3c2)c(O)cc1O	0.55	-1.1
CS(=O)(=O)c1ccc(-c2nnn(CC(=O)NC3CCCC3)n2)cc1	0.4	.
CCOc1ccc(N2C(=O)/C(=C\c3cc(Br)cs3)S(=O)(=O)C2c2cccc([N+](=O)[O-])c2)cc1 (centres undefined)	.	-0.23
CCC(=O)N(Cc1ccc(S(N)(=O)=O)cc1)C1CC(=O)N(c2ccccc2)C1=O (centres undefined)	-0.5	0.17
CCOc1cc(S(=O)(=O)NC2CC2)c(OCC)cc1-n1cnnn1	-0.2	.
CNc1nc2ccccn2c(=O)c1/C=C1\SC(=S)N(C)C1=O	0.4	80
O=C(Cc1ccsc1)Oc1ccc2c(c1)OCO2	-0.55	.
COc1ccc(OC)c(NC(=O)c2cc3ccc(O)cc3oc2=Nc2ccc(C(=O)O)cc2)c1	.	-0.74

Bioassay records from PubChem BioAssay.
